# Screening results: PubChem, National Center for Advancing Translational Sciences (NCATS)
# VACV mCherry inh = vaccinia inhibition (mCherry reporter); Vaccinia virus mCherry reporter infection, fluorescence; about a quarter of the inactives have no number; Potency, µM (series often up to 36.5 µM), for inactives: at the highest dose activity change, negative = inhibition, most hits filed as inhibitors; 310,000 compounds, 0.63% hits; AID 720579; active = well fitted inhibition curve with a large enough effect; inconclusive = small, poorly fitted or top-dose-only effect; inactive = no such curve, though single readings can be large or run the other way; tested in A549 cells; further: nearly all actives have a fitted effect of over 35% in size; inactives centre near -10
# VACV Venus inh = vaccinia inhibition (Venus reporter). Vaccinia virus Venus reporter expression, fluorescence. 330,000 compounds, 0.46% hits. Potency, µM (doses to about 36.5 µM), without a hit: at the highest dose activity change, negative = inhibition, actives largely listed as inhibitors; active means well fitted inhibition curve with a large enough effect; inconclusive means small, poorly fitted or top-dose-only effect; inactive means no such curve, though single readings can be large or run the other way; tested in A549 cells; further: nearly all actives have a fitted effect of over 30% in size; inactives centre near -10
# * marks the source's active call; other numbers are inactive results; i = inactive; ? = inconclusive; / = no result given; & = joins results of further samples; [ ] = remark or other dose. On the % scale 0 is the no-effect control and ±100 the full control effect; potency means the concentration at half of the fitted maximal effect.
smiles | VACV mCherry inh | VACV Venus inh
O=C(c1ccc(C(F)(F)F)cc1)C1CCCN(Cc2cccn2-c2ncccn2)C1 (centres undefined) | i | -23%
O=C(CCCOc1ccc(Cl)cc1Cl)N/N=C/c1ccc(Cl)cc1 | -22% | -12%
CCN(CC)c1nn2c(=O)c(C(=O)NCCc3ccccc3C)cnc2s1 | -4% | -17%
CC1CCC(C(=O)NC(C(=O)N2CCN(c3ccccn3)CC2)C(C)C)CC1 (centres undefined) | -12% | -4%
O=C(COC(=O)COc1ccc2ccccc2c1)NC1CCCc2ccccc21 (centres undefined) | i | 0%
CCOc1cnc(-c2ccccc2F)o1 | -1% | -5%
O=C(Nc1cccc(Cl)c1)Nc1ccc2c(c1)C(=O)OC2 | -20% | -17%
O=C(Cc1nn[nH]n1)NCc1ccccc1Cl | / | -11%
CCOC(=O)c1oc2ccc(Br)cc2c1COC(=O)C1=COCCO1 | -10% | 8%
COc1ccc(C(=O)NC(CC(=O)O)c2cc([N+](=O)[O-])ccc2Cl)cc1 (centres undefined) | -4% | -10%
COc1ccc(NC(=O)c2cc3c(=O)n(Cc4cccnc4)ccc3nc2C)cc1Cl | -8% | 0%
COCC(=O)Nc1ccc(S(=O)(=O)NCC2CCCO2)cc1 (centres undefined) | -14% | -4%
Cc1ccccc1Cn1c(C)c(CNCCCc2ccccc2)c(C(=O)O)c1C | 4% | 1%
COc1ccc(NC(=O)CC2C(=O)N(c3cccc(OC)c3)C(=O)N2Cc2ccco2)cc1 (centres undefined) | i | -9%
O=C(O[C@H]1[C@H](Cc2ccccc2)NS(=O)(=O)[C@H]2C[C@@H]3C=C[C@]12O3)c1ccccc1Br | -13% | -6%
COc1ccc2cc(C(N)=O)/c(=N/NC(=O)c3ccco3)oc2c1 | i | -5%
Cc1ccc(CNC(=O)C(C(=O)NCc2ccc(C)o2)c2ncc(C(F)(F)F)cc2Cl)o1 | i | -11%
COc1cc(OC)c(/C=N/NC(=O)c2ccc([N+](=O)[O-])cc2)cc1Br | -9% | -2%
Cc1c(C(=O)O)cccc1-c1ccc(/C=N/n2cnnc2)o1 | -13% | -11%
O=C(CCNC(=O)N1CC(=O)Nc2ccccc21)NCc1ccc(Cl)cc1 | i | -4%

# New compounds follow.
smiles | VACV mCherry inh | VACV Venus inh
COc1ccc(C(=O)Nc2ccnn2C2CCN(C(=O)c3cccnc3)CC2)cc1 | -8% | -7%
CC(C)=CCCC1(C)C=Cc2c(O)c3c(c(CC=C(C)C)c2O1)OC12C(=CCCC1C(C)(C)O[C@@]2(C/C=C(\C)C(=O)O)C(=O)O)C3=O (some centres undefined) | i | -22%
CCN(CC)c1ccc(S(=O)(=O)N2CCCCC2)cc1NC(=O)C1=COCCO1 | -23% | -14%
Fc1ccccc1Cn1c(-c2ccccc2)nc2ccccc21 | 4% | -7%
Cn1nnnc1SCC(=O)Nc1ncc(Cl)cc1Cl | -4% | 7%
CC(=O)Nc1ccc(CC(=O)Nc2ccc3c(c2)OC2(CCCC2)O3)cc1 | ? | -28%
COc1ccc(NC(=O)CCN2CCN(CCO)CC2)c(OC)c1 | -2% | 7%
COc1ccc(NC(=O)c2c(N)no[n+]2[O-])cc1 | -28% | -27%
COc1ccccc1OCCn1cc(/C=N/n2cnnc2)c2ccccc21 | -24% | -22%
Cn1c(=O)oc2cc(S(=O)(=O)N3CCC(C(=O)N4CCN(c5ccccc5F)CC4)CC3)ccc21 | -19% | -15%
CCOC(=O)c1nnn(-c2nonc2NC(C)=O)c1C | / | -22%
O=C(Cn1cnc2ccccc2c1=O)NNC(=O)c1ccccc1F | -12% | -5%
O=C(CSc1cccc2cccnc12)OCC(=O)c1ccc(Br)cc1 | / | -11%
COc1ccc(-c2c(C)cc3oc(=O)cc(-c4ccccc4)c3c2C)cc1 | i | -7%
Cn1c(OCc2ccc3c(c2)OCO3)nc2c1c(=O)n(Cc1cccc(Cl)c1)c(=O)n2C | / | -1%
Cc1cnc(=O)[nH]c1SCC(=O)Nc1nc2ccccc2s1 | -2% | 4%
COc1cc2oc(=O)cc(-c3ccc(-c4ccc(F)c(Cl)c4)cc3)c2c(OC)c1OC | -16% | -21%
CCN1C(=O)CC(N2CCC(C(=O)N3CCOCC3)CC2)C1=O (centres undefined) | / | -17%
CCCSC1=C(C#N)C(c2cccnc2)C(C(=O)OCC)=C(c2ccccc2)N1 (centres undefined) | / | -28%
O=C(CSc1nc2ccccc2nc1Cc1ccccc1)N1CCc2ccccc21 | -10% | -11%

# Record cards, from the list above. Order of values: VACV mCherry inh	VACV Venus inh
# `COc1ccc(C(=O)Nc2ccnn2C2CCN(C(=O)c3cccnc3)CC2)cc1` as listed: -8%	-7%
# `CCOC(=O)c1oc2ccc(Br)cc2c1COC(=O)C1=COCCO1` as listed: -10%	8%
# `CCN(CC)c1ccc(S(=O)(=O)N2CCCCC2)cc1NC(=O)C1=COCCO1` as listed: -23%	-14%
# `O=C(Cc1nn[nH]n1)NCc1ccccc1Cl` as listed: /	-11%

# Further records follow:
smiles | VACV mCherry inh | VACV Venus inh
CC(C)N(Cc1nc(-c2ccc(Cl)cc2)no1)C(=O)/C=C/c1ccccc1 | i | -22%
CCC(=O)Nc1cc(C(=O)O)ccc1Sc1ccc(Cl)cc1 | i | -14%
Cc1ccc2cc3cc(C(=O)N(CC(=O)NC4CCCC4)c4cccc(C)c4C)sc3nc2c1 | -16% | -10%
COc1ccc2c(c1)[nH]c1c(=O)n(CCC3=CCCCC3)cnc12 | / | -15%
Cc1c(C(=O)NCc2ccccc2C(F)(F)F)sc(=O)n1Cc1ccc(F)cc1 | -1% | 2%
C=CCn1c(O)c(/C=N/N2CCCCC2)c(=O)[nH]c1=O | -6% | -11%
CCOc1cc(C(=O)Nc2ccc(S(=O)(=O)Nc3onc(C)c3C)cc2)cc(OCC)c1OCC | 0% | -12%
COc1cccc(C(=O)Nc2c3c(nc4c2CCC4)CCCC3)c1 | 1% | -9%
O=C(/C=C/c1ccccc1Cl)c1ccc(O)cc1 | ? | -23%
COc1cccc(NC(=S)NCc2cccnc2)c1 | i | -17%
COc1ccc(N(CC(=O)Nc2ccc(C)c(C)c2)S(=O)(=O)c2c(C)n[nH]c2C)cc1 | i | -23%
CCC(=O)C1=C(N2CCCC2)CC(C)(C)CC1=O | / | -8%
O=C(COC(=O)c1cc(-c2ccccc2Cl)nc2ccccc12)Nc1ncc(C(F)(F)F)cc1Cl | -11% | -2%
Cc1ccccc1CNC(=O)c1cnc2sc(N3CCOCC3)nn2c1=O | -3% | -11%
COC(=O)c1cc2ccsc2n1CC(=O)Nc1ccc(N(C)C)cc1 | i | -5%
O=C(Oc1ccc2c(=O)c(Oc3ccc4ccccc4c3)coc2c1)c1cncc(Br)c1 | -4% | 4%
Cc1oc2cc3oc(=O)c(CC(=O)NCCC(=O)O)c(C)c3cc2c1C | -24% | -7%
COc1ccc(C(=O)CSc2nc3cccnc3n2C)cc1 | i | -6%
COc1ccc(CN(C)C[C@@H]2OCCCC[C@H](C)Oc3ccc(NC(=O)Cc4ccccc4)cc3C(=O)N([C@@H](C)CO)C[C@@H]2C)cc1 | -15% | -14%
COCCNc1nnc(SC(C)C(=O)Nc2ccc(-c3nc4ccc(C)cc4s3)cc2)s1 (centres undefined) | ? | ?

# Remaining list, next part.
smiles | VACV mCherry inh | VACV Venus inh
O=C(NCc1ccc(Cl)cc1)C(=O)NCC1OCCN1S(=O)(=O)c1ccc2c(c1)OCCO2 (centres undefined) | -15% | -19%
O=C(COC(=O)Cc1ccsc1)NC1CCCCCC1 | i | -12%
O=C(Nc1ccccc1C(=O)O)c1cc(S(=O)(=O)NCc2ccccc2)ccc1Cl | -20% | -3%
CC(C)C[C@@H]1NC(=O)[C@H](C(C)C)NC(=O)c2cc([N+](=O)[O-])cc(I)c2NCC[C@@H](C(N)=O)NC1=O | 0% | -4%
COc1ccc(C2(c3ccc(OC)cc3)NC(=O)N(CC(=O)N(C)C)C2=O)cc1 | -7% | 14%
Cc1ccc(-c2ccc(SCC(=O)N3CCN(c4ccccc4)CC3)nn2)cc1 | -14% | -8%
CCCCC[C@H](O)/C=C/C1=C(CCCCCCC(=O)O)C(=O)CC1 | -21%[3.33 µM] | -17%
NC(=O)C(NN=C(c1ccccc1)c1ccccc1)c1ccccc1 (centres undefined) | -12% | -13%
Cc1cccc(C)c1NC(=O)C(=O)NCC1CCCN1S(=O)(=O)c1cccs1 (centres undefined) | i | -4%
C=CCn1c(SCc2ccc(Cl)cc2)nc2c1c(=O)[nH]c(=O)n2C | / | 2%
Cc1ccnc(NC(=S)NC(=O)/C=C/c2ccco2)c1 | / | -23%
Cc1nc2c(-c3ccc(F)cc3)cnn2c2c1CCC2 | -8% | 4%
CCCn1cc(CN2CCc3ccc(NC(=O)C4CCCO4)cc3C2)c(C)n1 (centres undefined) | -11% | -5%
C[C@H]1NC(=O)[C@@]2(C)[C@H](c3ccccc3)[C@H]3COc4ccccc4[C@@H]3N2C1=O | i | 4%
COCCNC(=O)CN1C(=O)c2cccnc2Sc2ccccc21 | -2% | -10%
COc1ccc(Oc2nccc(-c3ccc(F)cc3)c2C#N)cc1 | / | -22%
Cc1ccc(C)c(/C(O)=C2\C(=O)C(=O)N(CCCN3CCOCC3)C2c2cccnc2)c1 (centres undefined) | -12% | -2%
CC(=O)N1c2ccccc2CC1C(=O)N1CCN(c2cccc(C)c2C)CC1 (centres undefined) | 1% | -2%
Cc1ccc(-c2nc3sccn3c2Nc2ccc(C)c(C)c2)cc1 | ? | ?
O=C(Cc1ccc(S(=O)(=O)N2CCOCC2)s1)Nc1cc(C(F)(F)F)ccc1N1CCCC1 | ? | -9%

# Additional entries:
smiles | VACV mCherry inh | VACV Venus inh
CCC(Sc1nccn1C)C(=O)Nc1nnc(C)s1 (centres undefined) | i | -3%
Cc1cc(C)c(C(=O)c2cccs2)c(C)c1 | -13% | 5%
COc1cccc(C(=O)NCCc2csc3nc(-c4ccccc4F)nn23)c1OC | -4% | -6%
C#CC(C)(CC)NC(=O)c1cc2cccc(CC=C)c2oc1=O (centres undefined) | i | -2%
CCc1ccccc1NC(=O)N[C@@H](C)C(=O)O | -12% | -12%
Cc1c(NC(=O)COc2ccc3ccccc3c2)c(=O)n(-c2ccccc2)n1C | -5% | -12%
CN(Cc1ccccc1)C(=O)c1ccccc1C(=O)O | i | -8%
Cc1nn(C)cc1CN(C)Cc1c(C(=O)N(C)Cc2ccccc2)nc2ccccn12 | -4% | -13%
COc1ccc(C2c3c(oc4ccc(Cl)cc4c3=O)C(=O)N2CCCN(C)C)cc1OC (centres undefined) | i | -9%
O=C(Nc1ccc2oc(=O)ccc2c1)c1cc2ccccc2o1 | / | -18%
CN(C)S(=O)(=O)c1cccc(NC(=O)COC(=O)CCC(=O)c2ccc(F)cc2)c1 | i | 2%
Cc1ccc(CNC(=O)c2ccc(NC3=NC4CS(=O)(=O)CC4S3)cc2)cc1 (centres undefined) | i | -8%
C=CCC1CCCC(=O)N2CCCC12 (centres undefined) | -11% | 0%
Fc1ccc(NCc2ccccc2F)cc1Cl | -11% | -7%
COc1cc(CNc2ccc(N3CCCC3)cc2)ccc1OCc1ccccc1 | -13% | 2%
Cc1cc(NC(=O)c2ccc(Cl)cc2)n(CCC#N)n1 | -9% | 3%
COc1cccc2[nH]c(C(=O)NN)c(N)c12 | -14% | 4%
CN1CCN(S(=O)(=O)c2cccc(C(=O)Nc3cc(Cl)ccc3N3CCOCC3)c2)CC1 | -5% | -19%
COc1cccc(CNC(=O)c2ccc3nc(-c4ccc(F)cc4)c(-c4ccc(F)cc4)nc3c2)c1 | -24% | -20%
COc1ccc(C(CC(=O)N2CCCCC2)c2c(OC)cc(OC)c3ccc(=O)oc23)cc1 (centres undefined) | 1% | -2%

# The list continues:
smiles | VACV mCherry inh | VACV Venus inh
Cc1cccc(NC(=O)C2CCCN(S(=O)(=O)c3cccc4nsnc34)C2)c1 (centres undefined) | -13% | -17%
CC1SC2(NC1=O)C1CC3CC(C1)CC2C3 (centres undefined) | -7% | -8%
COc1cc(C(=O)N2CCN(C(=O)C3CC3)CC2)cc(OC)c1OC | / | -29%
CC(=O)c1ccc(N2CCN(C(=O)Nc3ccc(C)cc3)CC2)cc1 | -8%&-22% | -17%&-24%
CCOC(=O)C(C(=O)OCC)C(c1ccccc1)N1CCN(c2ccccc2)CC1 (centres undefined) | i | -5%
CCc1noc(C)c1C(=O)OCC(=O)Nc1ncc(Cl)cc1Cl | i | -7%
Cc1cc(NC(=O)CSc2nnc(C3CC3)n2-c2ccccc2)no1 | i | -1%
Cn1c(=O)[nH]c(=O)c2c1nc(NCc1ccco1)n2CCCc1ccccc1 | / | -10%
Cc1cc(Cl)ccc1NC(=O)C1CCN(S(C)(=O)=O)CC1 | i | -7%
CN1CCCN(C(=O)c2ccc(Cl)c(S(=O)(=O)N(C)c3ccccc3)c2)CC1 | -12% | 2%
COc1cccc(-c2nc(SCC(=O)Nc3ccc4c(c3)OCCO4)c(-c3ccccc3)[nH]2)c1 | -24% | -20%
CC1(C)CC(=O)c2sc(NC(=O)CN3CCOCC3)nc2C1 | -5% | 3%
COc1ccccc1CNc1nc(NCc2cnc(C)cn2)c2sccc2n1 | i | -8%
CCc1ccc(S(=O)(=O)Nc2ccc(-c3nc4cccnc4s3)cc2)s1 | 19% | 0%

# No enrichment for hits (roughly 0.88% active in at least one column).
